Source: PubChem
Six1-Eya2 blk = blocks human Six1 binding to Eya2; Q15475+O00167; AlphaScreen GST-Six1/His-Eya2 binding, biochemical; stronger effect = lower value; control for the full effect not named in the record; activity change, % (no concentration beside the values); hit rate 0.56% among 360,000; in the data active = activity change below about -65%; inconclusive = about -30% to -65%; inactive = above about -30%; also: % is scaled to controls: 0 for no effect and ±100 for the full control effect; compound concentration not given in the record
Target sequence (O00167 whole entry, looked up): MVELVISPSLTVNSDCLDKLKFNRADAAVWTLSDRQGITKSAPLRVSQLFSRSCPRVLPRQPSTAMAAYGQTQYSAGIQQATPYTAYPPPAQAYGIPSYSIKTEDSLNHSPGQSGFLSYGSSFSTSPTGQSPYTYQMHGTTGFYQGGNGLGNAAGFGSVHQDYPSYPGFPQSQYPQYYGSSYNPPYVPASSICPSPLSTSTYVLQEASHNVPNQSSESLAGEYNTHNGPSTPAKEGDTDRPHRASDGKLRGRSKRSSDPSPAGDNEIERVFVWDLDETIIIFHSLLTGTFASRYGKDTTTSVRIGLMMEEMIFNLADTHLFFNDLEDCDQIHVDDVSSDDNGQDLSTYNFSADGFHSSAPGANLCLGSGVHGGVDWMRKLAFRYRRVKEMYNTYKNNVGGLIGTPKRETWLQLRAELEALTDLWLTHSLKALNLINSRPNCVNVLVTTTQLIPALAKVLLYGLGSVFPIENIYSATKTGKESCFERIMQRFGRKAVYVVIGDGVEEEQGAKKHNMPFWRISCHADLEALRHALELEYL
Target sequence (Q15475 whole entry, looked up): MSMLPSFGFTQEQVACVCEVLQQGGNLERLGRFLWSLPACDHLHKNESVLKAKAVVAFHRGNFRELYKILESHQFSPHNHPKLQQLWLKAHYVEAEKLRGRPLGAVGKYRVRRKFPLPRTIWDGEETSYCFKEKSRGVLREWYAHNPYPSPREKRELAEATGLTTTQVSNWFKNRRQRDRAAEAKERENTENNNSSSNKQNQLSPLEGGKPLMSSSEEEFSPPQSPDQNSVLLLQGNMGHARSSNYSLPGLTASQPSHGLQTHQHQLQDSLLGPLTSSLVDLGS
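Six1/Eya2 binding was read as AlphaScreen signal after compounds were pinned into GST-Six1 plus His-tagged Eya2 (5X stock 250/500 nM) in pH 8.0 Tris/NaCl/TCEP buffer, beads added, then incubated 1 h, 37 C, dark.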
D2 PAM = human D2 receptor positive allosteric modulation; hit rate 0.23% among 360,000; potentiation, % (test concentration not listed); P14416; DiscoveRx D2 beta-arrestin cells, luminescence, 90 min; 100% = 57 uM dopamine signal; active = potentiation of 50% or more; inconclusive = 30% to 50%; inactive = 30% or less;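 also: compound concentration not given in the record; tested on top of an EC20 dose of dopamine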
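PathHunter beta-arrestin assay in DiscoveRx D2 cells. Compounds were added with an EC20 of dopamine (50 nM final) for 90 min at 37 deg C. Luminescence was read 1 h after detection reagent, with 57 uM dopamine as the EC100 control.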
TRPV1 potentiator = enhances activation of the human vanilloid receptor TRPV1; AID 540277; hit rate 0.02% among 320,000; TRPV1-expressing cells, Fluo-8 calcium influx, capsaicin EC20 potentiation; host cell line not named in the record; control for the full effect not named in the record; potentiation, % at 8.33 µM; active means potentiation above 80%; inconclusive means 30% to 80%; inactive means below 30%; also: 0% is about no effect
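Cells expressing TRPV1 were dye-loaded with Fluo-8 and read kinetically: 10 s baseline, 3 min after compound (agonist portion), then 2 min after EC20 capsaicin (allosteric enhancer portion). Calcium-bound dye fluorescence at 480/520 nm.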
TRPML1 blocker = blocks the human TRPML1 channel | TRPML1-inducible cells, Ca2+ dye fluorescence, FDSS; stronger effect = lower value; inhibition of EC80 agonist-evoked calcium signal | activity change, negative = inhibition, % (test concentration not listed) | hit rate 0.02% among 390,000 | Q9GZU1; in the data active means activity change below about -50%; inconclusive means about -30% to -50%; inactive means above about -30%;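 also: stimulus is agonist 54-4 at its EC80 concentration; % is scaled to controls: 0 for no effect and ±100 for the full control effect; compound concentration not given in the record; the text of the record puts the active cut at -80%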
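Calcium fluorescence in TRPML1-DL cells induced overnight with Tet: a 110 s read after compound pin addition, then a 110 s antagonist read after challenge with 54-4 at 4 uM final (EC80).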
CtBP-E1A inh = CtBP/E1A binding inhibition; hit rate 0.49% among 340,000; AlphaScreen GST-E1A/His-CtBP binding, 1536-well; stronger effect = lower value; control for the full effect not named in the record; activity change, % (test concentration not listed); in the data active means activity change below about -65%; inconclusive means about -30% to -65%; inactive means above about -30%; also: % is scaled to controls: 0 for no effect and ±100 for the full control effect; compound concentration not given in the record
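AlphaScreen with 125 nM GST-E1A and 125 nM His-CtBP (5X stocks) in Tris pH 8.0, 300 mM NaCl, BSA, Tween 20, TCEP. Compounds preincubated 2 h at 37 deg C, then glutathione donor/nickel acceptor beads added for 1 h at 37 deg C in dark.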
TRPML1 agonist = agonists of human TRPML1 channel | TRPML1-expressing cells, Ca2+ dye fluorescence, FDSS; host cell line not named in the record; reference of the full effect not given here | activation, % (no concentration beside the values) | Q9GZU1 | hit rate 0.12% among 410,000 | AID 624414; in the data active = activation above about 50%; inconclusive = about 30% to 50%; inactive = below about 30%; also: 0% is about no effect; the text of the record puts the active cut at 80%
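Tetracycline-induced TRPML1-DL cells are seeded and incubated overnight before loading with a no-wash Ca2+ dye and quencher. Agonist activity is taken from the 110 s fluorescence read following compound pin-transfer on an FDSS, before EC80 54-4 challenge.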
Active calls of the source: *; ? = inconclusive; / = no result given; & = joins results of further samples.

SMILES	Six1-Eya2 blk	D2 PAM	TRPV1 potentiator	TRPML1 blocker	CtBP-E1A inh	TRPML1 agonist
O=C(/C=C/c1ccc2c(c1)OCCCO2)c1ccccc1O	2	-14	-4	-9	8	3.9
O=C(CCN1C(=O)c2ccccc2C1=O)Nc1cccnc1	4	-5	-3	-8	-2	0.1
CCOC(=O)c1c(CN2CCCCC2)n(C)c2cc(Br)c(OC)cc12	-20	-37	-26	-2	-9	-0.8
CN(C(=O)c1cccc(S(=O)(=O)NCc2ccccc2)c1)C1CCCCC1	7	-4	/	-4	6	-0.2
CCCCCCCC(=O)N/N=C/c1ccc([N+](=O)[O-])o1	-7	-3	-7	10	/	1.3
CCc1cc(C(=O)c2ccc(OC)cc2)c(NC(=O)CCC(=O)O)s1	1	-11	7	3	7	-0.3
CCOC(=O)Nc1ccc2c(c1)nc(CN1CCOCC1)n2C	7	1	6	-5	0	-0.5
COc1cc(/C=C2\Oc3cc(O)ccc3C2=O)ccc1O	-4	5	-10	43	-2	?
O=C(Nc1nc2c(s1)CCCC2)c1ccc(N2C(=O)CCC2=O)cc1	-11	-15	8	15	4	0.0
COc1ccc(-c2[nH]c(-c3ccc(C(=O)O)cc3)nc2-c2ccccc2)cc1	-4	-1	12	-16	-8	1.1
Sc1ccccc1N=Cc1cccs1	16	-8	/	-2	3	-0.7
Cc1ccc(OCC(=O)n2nc(C)cc2C)c(Br)c1	11	-30	-1	11	-1	1.5
CN(Cc1ccon1)C(=O)CCc1nnc(Cc2ccc(-c3ccccc3)cc2)o1	-7	5	0	-1	4	-0.7
CC(=O)Oc1ccc2c(C)cc(=O)oc2c1C(=O)c1ccccc1	-9	2	2	1	7	0.8
CC1=C(C(=O)Nc2cccc(C(=O)NC3CCCC(C)C3C)c2)SCCO1 (stereo not drawn)	-1	-13	11	-8	-6	1.3
CNC(=O)C1=C(C)Nc2nc3ccccc3n2C1c1ccc(F)cc1 (stereo not drawn)	1	-3	-16	-9	-6	-0.2
O=C(O)c1ccc(N/N=C/c2ccc(OC(=O)c3cccc(Cl)c3)cc2)cc1	-8	-4	-10	/	1	/
COc1cccc(C(NC(C)=O)c2nc(-c3cccc(C#N)c3)cs2)c1 (stereo not drawn)	0	-9	/	/	-1	-0.9
Cc1ccc(NC(=O)c2ncn(CC(=O)N[C@H](C)c3cccc4ccccc34)n2)cc1C	-4	-7	/	1	0	-0.8
Cc1cc(O)c(C(C)C)cc1N=Cc1ccccc1[N+](=O)[O-]	0	-4	/	13	-3	-0.5
CC(=O)NC1=NN(C(C)=O)C(c2ccc(F)cc2)S1 (stereo not drawn)	8	-5	0	-2	-1	-0.5
CC(C)(C)c1ccc(-c2nnc(SCC(=O)NCC3CCCO3)n2N)cc1 (stereo not drawn)	8	-16	/	-11	-1	0.3
COc1ccc(S(=O)(=O)N2CCOCC2)cc1NC(=O)c1cccc(-n2cccc2)c1	?	11	19	-3	-4	-0.3
COc1cc(C(=O)N2CCN(C(=O)C3CCCO3)CC2)cc(OC)c1OC (stereo not drawn)	1	-10	-6	13	-1	0.7
CCOCCCn1c(SCC(=O)NC2CCCCC2)nc2ccccc2c1=O	4	0	/	1	4	-1.0
O=C(NCc1ccco1)c1nc2c(nnn2Cc2cccc(Cl)c2)c(=O)[nH]1	0	1	12	-6	6	1.4
CCC1CCCCN1CCCNC(=O)C1CCN(S(=O)(=O)N2CCCCC2)CC1 (stereo not drawn)	3	-1	-2	-1	8	0.3
Cc1ccoc1C(=O)Nc1ccc(CC(=O)O)cc1	3	-16	14	-5	-1	-0.4
Cc1ccccc1CC(=O)Nc1ccc(C(=O)N2CCCC2)cc1	-3	0	0	2	3	0.3
CCCCC(c1nnnn1CS(=O)(=O)c1ccc(C)cc1)N1CCN(c2ccccc2)CC1 (stereo not drawn)	-15	-8	6	76	-1	0.5
Cn1c(-c2ccccc2)cc2c3no[n+]([O-])c3ccc21	-16	?	6	30	-18	0.8
COc1cccc(OCC(=O)Nc2ccccc2-c2ccccc2)c1	29	0	-16	-1	/	3.0
CC(C)(C)C(=O)CSc1nccc(=O)[nH]1	5	0	2	22	7	0.5
CNC(=S)N(CCc1c(C)[nH]c2ccc(C)cc12)Cc1ccc(OC)c(OC)c1	-24	-1	-24	-7	-22	0.8
Cc1ccc(NC(=O)COC(=O)c2cc(-c3cccs3)nn2-c2ccccc2)cc1[N+](=O)[O-]	-15	-19	-30	10	-23	0.1
C/C=C/C=C/C(=O)OCC(=O)Nc1ccc(Cl)cc1	8	-5	-5	32	-1	2.3
O=C(COC(=O)c1ccc(O)cc1)Nc1cccc(S(=O)(=O)NC2=NCCCCC2)c1	-2	1	-2	16	-25	1.3
Cc1ccc(NC(=O)CCNS(=O)(=O)c2ccc(Br)s2)cc1	-1	-7	-7	-3&9	-3	0.6&1.2
Cc1cc(Oc2nc3c(C)cccn3c(=O)c2/C=C(\C#N)S(=O)(=O)c2ccccc2)ccc1Cl	2	-21	7	-13	-7	-0.3
Cc1ccc(SCc2ccc(C(=O)N3CCCCC3)cc2)cc1	-7	-77	-1	-20	/	-0.2

Some of the entries so far, with values under each structure.
Every second line gives: Six1-Eya2 blk, D2 PAM, TRPV1 potentiator, TRPML1 blocker, CtBP-E1A inh, TRPML1 agonist
> Sc1ccccc1N=Cc1cccs1
    16, -8, /, -2, 3, -0.7
> Cc1ccc(OCC(=O)n2nc(C)cc2C)c(Br)c1
    11, -30, -1, 11, -1, 1.5

Later entries:
SMILES	Six1-Eya2 blk	D2 PAM	TRPV1 potentiator	TRPML1 blocker	CtBP-E1A inh	TRPML1 agonist
Cc1cc(C(=O)NCCN2CCCCC2C)n(-c2ccccc2)n1 (stereo not drawn)	-7	-6	20	2	0	-0.9
CC(C)NC(=O)c1sc2nc3c(c(-c4cccs4)c2c1N)CN(C)CC3	-8	-9	-10	-15	-12	-0.1
CCOc1ccc(S(=O)(=O)NCCC(=O)OCN2C(=O)c3ccccc3C2=O)cc1	2	-7	-7	2	0	0.3
CCCCNc1c(-c2ccc(SC3CCCCC3)cc2)nc2ccccn12	6&-19	-21	-6	13	-13&-7	-0.1&-0.1
CCc1ccc(NC(=O)C2CCN(S(=O)(=O)c3cccs3)CC2)cc1	-4	-5	?	5	-24	1.9
COc1ccc(CNC(=O)Nc2nc(C(N)Cc3ccc(C(F)(F)F)cc3)cs2)cc1 (stereo not drawn)	-12	2	/	/	-3	3.9
CC1CCC(NC(=O)C2CCC(CNS(=O)(=O)c3cccc4nsnc34)CC2)CC1 (stereo not drawn)	6	2	4	8	-5	0.3
O=C(NNC(=S)NC(=O)c1cccnc1)c1ccc(Cl)cc1	0	-10	18	21	-1	0.1
CCOc1ccc(NC(=O)COC(=O)C2CCC(=O)N2)c([N+](=O)[O-])c1 (stereo not drawn)	-10	22	-7	8	0	0.8
CC(C)N(Cc1ccccc1)C(=O)c1cnc2n(c1=O)CCS2	4	-4	?	2	4	0.0
Cc1ccc(NCN2C(=O)C3CC=C(Cl)CC3C2=O)cc1 (stereo not drawn)	0	-12	17	40	9	-0.3
CCCCCNc1c(C(=O)OCC)c(=O)[nH]c2ccccc12	-1	6	5	8	-1	3.1
Cc1ccc2oc(=O)n(CC(=O)O)c2c1	3	-6	-3	-1	5	-0.1
COc1ccc(NC(=O)CCOc2ccc(C)cc2)cc1S(=O)(=O)N1CCOCC1	2	8	21	-6	-2	0.7
CC(C)CCNC(=O)C(c1ccco1)N(CCCO)C(=O)Cn1nnc(-c2ccc(F)cc2)n1 (stereo not drawn)	-10	-7	1	-17	0	-0.2
CCN1C(=O)c2c(C)nc3ccccc3c2C1=O	-18	-6	0	0	-16	-0.4
Cc1cc(C)n(-c2ccc(C(=O)OC(C)C)cc2)n1	3	-2	-2	7	-4	1.1
O=C(O)C1CCCCC1C(=O)NCc1ccccn1 (stereo not drawn)	9	-9	-14	-8	17	-0.2
O=C(N/N=C/c1ccccc1OCc1ccccc1)c1cccs1	-23	-13	0	37	?	3.5
Cc1cc(N(CC(=O)NC(C)C)S(C)(=O)=O)ccc1Br	3	-18	6	16	-11	-0.4
CC(C)(C)c1cc(NS(=O)(=O)c2cccs2)no1	2	-3	4	18	-2	0.2
COc1ccccc1NC(=O)c1cc(Cl)ccc1NC(=O)c1ccco1	24	-17	-2	-4	2	-0.3
COc1cccc(CN(C)C(=S)Nc2cccc(C)c2)c1	0	-8	-5	26	2	0.8
O=c1cc(N2CCC3(CC2)OCCO3)[nH]c(=O)n1C1CCCCC1	0	-10	4	3	4	-0.2
Cn1cnc([N+](=O)[O-])c1NCc1ccccc1	10	-13	3	2	/	-1.0
CN(C)Cc1csc(NC(=O)Nc2ccccc2C(C)(C)C)n1	1	-19	/	/	0	-0.3
COc1ccc(NC(=O)c2ccc(NC(=O)C(C)C)cc2)c([N+](=O)[O-])c1	3	2	-11	5	22	-0.6
O=C(CSc1nnc(Cc2ccccc2)n1-c1ccc(F)cc1)N1CCOCC1	3	1	-2	6	7	-0.8
CCOC(=O)CSc1nnc([C@H](CC(C)C)NC(=O)OC(C)(C)C)o1	-1	5	1	-1	12	1.0
CCc1nnc(NC(=O)COc2ccc3c(c2)OCO3)s1	2	-1	?	9	-5	0.8
CC(/C=C1\SC(=S)N(CCCC(=O)Nc2ccc(C(=O)O)cc2)C1=O)=C\c1ccccc1	-30	-1	10	17	5	4.2
CC(=O)N1CCN(C(=O)c2cc(C)nc3ccccc23)CC1	-2	-6	19	-17	/	0.7
Fc1ccc(Nc2c(-c3ccco3)nc3ccccn23)cc1	-11	2	-3	-11&-14	-4	-0.8&3.1
CCOc1ccccc1NC(=O)CNC(=O)CNC(=O)Cc1ccccc1	13	-12	18	11	-2	-0.1
Cc1c(C#N)c2ccccc2n1CC(=O)O	-1	-5	12	8	-4	-0.4
COc1cc(/C=C(/C#N)c2ccc(F)cc2)ccc1Oc1ccc([N+](=O)[O-])cn1	-16	-12	1	23	4	-1.1
Nc1c(Cl)cc(C(=O)NC2CC2)cc1Cl	-10	-12	/	4	-15	0.0
CCOc1ccc(CNC(=O)CCCc2cn(C)c3ccccc23)cc1OC	-14	-7	-26	-10&12	-4	4.6&0.3
CCCN(CC(=O)Nc1ccc(F)c(F)c1F)C(=O)CN1C(=O)NC2(CCCCC2)C1=O	2	2	/	0	/	-0.7
O=C(Nc1ccc2c(c1)OCO2)c1cc(C2CCCCN2C(=O)c2ccc3ccccc3c2)on1 (stereo not drawn)	-6	3	/	/	-30	0.5
CCCn1c(=S)[nH]c2cc(C(=O)N3CCCC(C(=O)OCC)C3)ccc2c1=O (stereo not drawn)	1	9	1	-10	-3	0.9

Profiles, quoted from the list. Screens in order: Six1-Eya2 blk	D2 PAM	TRPV1 potentiator	TRPML1 blocker	CtBP-E1A inh	TRPML1 agonist
`Nc1c(Cl)cc(C(=O)NC2CC2)cc1Cl` is entered as -10	-12	/	4	-15	0.0
`Cc1c(C#N)c2ccccc2n1CC(=O)O` is entered as -1	-5	12	8	-4	-0.4
`CCCN(CC(=O)Nc1ccc(F)c(F)c1F)C(=O)CN1C(=O)NC2(CCCCC2)C1=O` is entered as 2	2	/	0	/	-0.7
`CC(=O)N1CCN(C(=O)c2cc(C)nc3ccccc23)CC1` is entered as -2	-6	19	-17	/	0.7
